KCNQ2 enhance: potentiators of rat KCNQ2 potassium channel; O88943; CHO-K1 KCNQ2, FluxOR thallium flux fluorescence; stronger effect = higher value; B-score at 10 µM; hit rate 0.54% among 310,000;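 active = fluorescence ratio B-score at least 3 SD of library B-scores, with initial fluorescence B-score within 3 SD, cut at about 5.3 in these data; same plate scores as AID 2156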;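 note: B-score of peak minus minimum over baseline fluorescence ratio after K+ and Tl+ stimulus; positive B-score means potentiation of KCNQ2 with more thallium influx and brighter signal; only the inactives scoring about 0 or higher are listed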
Target sequence (O88943 whole entry, looked up): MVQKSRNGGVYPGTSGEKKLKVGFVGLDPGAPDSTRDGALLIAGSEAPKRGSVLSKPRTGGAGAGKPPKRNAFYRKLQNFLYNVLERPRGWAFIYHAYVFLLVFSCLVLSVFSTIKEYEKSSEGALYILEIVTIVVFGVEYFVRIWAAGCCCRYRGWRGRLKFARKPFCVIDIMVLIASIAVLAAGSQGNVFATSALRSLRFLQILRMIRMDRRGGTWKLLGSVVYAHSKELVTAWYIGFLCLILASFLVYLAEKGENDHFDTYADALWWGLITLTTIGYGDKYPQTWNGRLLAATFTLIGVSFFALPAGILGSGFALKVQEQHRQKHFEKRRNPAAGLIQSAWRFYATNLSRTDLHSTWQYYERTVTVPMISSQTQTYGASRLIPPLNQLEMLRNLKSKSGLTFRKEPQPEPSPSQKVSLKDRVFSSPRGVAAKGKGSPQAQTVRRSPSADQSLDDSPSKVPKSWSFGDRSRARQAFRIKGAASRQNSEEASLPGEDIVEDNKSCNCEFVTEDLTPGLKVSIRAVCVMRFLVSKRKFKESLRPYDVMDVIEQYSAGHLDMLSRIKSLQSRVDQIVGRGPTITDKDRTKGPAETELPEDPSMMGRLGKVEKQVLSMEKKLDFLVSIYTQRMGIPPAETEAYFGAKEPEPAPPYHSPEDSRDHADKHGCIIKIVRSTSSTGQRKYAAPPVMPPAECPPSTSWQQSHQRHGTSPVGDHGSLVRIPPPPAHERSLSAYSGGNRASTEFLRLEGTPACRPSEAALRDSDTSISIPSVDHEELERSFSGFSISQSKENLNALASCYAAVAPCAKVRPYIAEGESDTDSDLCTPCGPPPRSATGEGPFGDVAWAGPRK
KCNQ2 enhance baseline: also measured in KCNQ2 enhance; calls as there; B-score; compound at 10 µM; measured here: initial fluorescence intensity artifact check;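 brightness before thallium and not channel activity; 0 = typical well and far values either way flag optical interference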
* marks the source's active call; other numbers are inactive results.

#	compound	KCNQ2 enhance	KCNQ2 enhance baseline
1	O=C(C1CCN(S(=O)(=O)c2ccc(F)cc2)CC1)N1CCCC(C(F)(F)F)C1 (stereo unspecified)	0.02	4.4
2	CCOc1ccc(S(=O)(=O)N2CCOCC2)cc1NC(=O)c1ccc(N2CCCC2=O)cc1	1.5	0.04
3	CCC(C)C(NC(=O)C1CCC(C)CC1)C(=O)NC(CCSC)C(=O)OC (stereo unspecified)	0.21	0.07
4	O=C(N/N=C/c1ccccc1Cl)c1ccc(F)cc1	0.37	0.99
5	Cc1cc(C)nc(SCCn2c(N3CC(C)OC(C)C3)nc3c2c(=O)n(C)c(=O)n3C)n1 (stereo unspecified)	1	0.2
6	Cc1ccc(C)c(S(=O)(=O)N2CCC(c3nc4c(nnn4Cc4ccc5c(c4)OCCO5)c(=O)[nH]3)CC2)c1	0.06	-0.34
7	CCNC(=S)N/N=C/c1cccc(OCc2c(F)cccc2Cl)c1	0.06	1.6
8	C=CC[n+]1c(C)csc1Nc1ccc(C)cc1	0.08	-0.38
9	O=C(NC1CCCCC1)/C(=N\O)c1ccccn1	0.17	1.4
10	CC(C)CCNC(=S)Nc1ccc([N+](=O)[O-])cc1	14*	0.81*
11	CC1CCCCN1CCNS(=O)(=O)c1ccc2c(c1)oc(=O)n2C (stereo unspecified)	0.29	1.7
12	Cc1nnsc1C(=O)NNc1ccc(C(C)C)cc1	0.37	-0.87
13	CCN(C(=O)CSc1nc2cc(S(=O)(=O)N(CC)CC)ccc2o1)C1CCS(=O)(=O)C1 (stereo unspecified)	0.14	-0.61
14	C#CC[N+]1(CC#Cc2ccccc2)CCOCC1	0.3	-2.5
15	CCC(Sc1ccc2nnc(-c3ccc(F)cc3)n2n1)C(=O)OC (stereo unspecified)	1.7	1.1
16	Cn1cc(-c2ccno2)c(C(=O)O)n1	0.12	1.5
17	CN(CC(=O)N1CCCCC1)S(=O)(=O)c1ccc(Cl)cc1	0.85	1.2
18	Cn1cc(Cl)c(C(=O)NNC(=S)NCc2ccco2)n1	0.08	-0.8
19	CCOC(=O)C1CCCN(CC(O)COc2ccccc2C(C)=O)C1 (stereo unspecified)	1.8	0.64
20	Cc1sc2ncnc(SCc3ccc(C(=O)O)cc3)c2c1C	0.5	-2.6
21	Cc1cc(OCC(=O)Nc2ccc(Br)cc2)cc2c1C(=O)CC(C)(C)O2	0.62	0.01
22	Cc1ccc(NC(=O)c2cc([N+](=O)[O-])ccc2Cl)c(O)c1	1.2	0.74
23	CCN(Cc1ccccc1)C(=O)c1c(-c2ccccc2Cl)noc1C	1.5	0.88
24	Cc1ccc(C(=O)C2CCN(CC(=O)NC3CCCCC3)CC2)cc1	0.57	0.65
25	CCN(CC)S(=O)(=O)c1ccc2c(c1)N(CC(=O)Nc1cccnc1Cl)C(=O)CO2	0.98	-1.3

(cont.)
#	compound	KCNQ2 enhance	KCNQ2 enhance baseline
26	Cc1cc(SC#N)cc(C)c1NC(=O)CCl	6.3*	1.6*
27	O=C(Cc1cccc(C(F)(F)F)c1)NCC(=O)Nc1cc(Cl)ccc1Cl	1.2	-1.1
28	Nc1nnc(-c2cn(-c3ccccc3)nc2-c2ccc(Cl)cc2)o1	0.75	-0.92
29	Cc1ccc(CCNC(=O)CN(C)S(=O)(=O)c2cnc[nH]2)cc1	1.3	-1.4
30	CCOC(=O)c1cc2sc(C)cc2n1CC(=O)N(CC)CC	0.74	-1
31	CC(=O)N/C(=C\c1ccccc1Cl)C(=O)O	1.9	-1.3
32	Cn1c(=O)c2c(SCC(=O)Nc3ccc4c(c3)OCCO4)nc(CC(C)(C)C)nc2n(C)c1=O	0.81	-0.99
33	O=C(O)Cc1ccc2sc(-c3ccccc3)nc2c1	0.06	-1.5
34	Oc1cc2c(cc1CN1CCc3ccccc3C1)OCO2	1.2	1.4
35	Cc1cc(C(=O)Nc2nnc(C3CCCCC3)s2)cs1	1.2	1.1
36	COc1ccc(CCN(C)CCC(=O)Nc2ccc(C)cc2)cc1OC	0.8	-0.31
37	O=C(NNS(=O)(=O)c1ccc(F)cc1)C1CC(c2cccnc2)=NO1 (stereo unspecified)	0.39	0.03
38	Cc1ccc(NC(=O)C(C)N2CCOCC2)c(C(=O)c2ccccc2)c1 (stereo unspecified)	0.21	1.6
39	CC(C)c1ccc(Nc2nc(Cl)nc(NCCO)n2)cc1	2.9	-1.6
40	CC(=O)c1cc2c(cc1NC(=O)CCC1CCCC1)OCO2	1	0.63
41	Cc1onc(-c2c(Cl)cccc2Cl)c1C(=O)NCCN1CCOCC1	1.1	-3.2
42	CC(C)CCn1c(N2CCCC2)nc2c1c(=O)[nH]c(=O)n2C	0.01	-1.2
43	Cc1nn(-c2cccc(C(F)(F)F)c2)c(=O)c2noc(C)c12	0.76	1
44	OC(COCc1ccccc1)CN1CCN(Cc2ccc3c(c2)OCO3)CC1 (stereo unspecified)	0.78	-2.2
45	O=C(CN(Cc1ccccc1)C(=O)CCC(=O)Nc1nccs1)NCc1ccco1	1.1	0.09
46	Cc1nn(C)c(C)c1-c1c(C#N)c(N)nc2c1CCCCCC2	1.1	1.1
47	Cc1nn(CCC#N)c(NC(=O)c2ccc(Cl)cc2Cl)c1P(=O)(Nc1ccc([N+](=O)[O-])cc1)N1CCOCC1 (stereo unspecified)	0.31	0.11
48	O=C(Nc1ccc(F)cc1)c1cccnc1N1CCOCC1	0.47	-2.3
49	O=C1C=C(NCc2ccccc2)c2ccccc2C1=O	0.57	-0.94
50	CCCc1c(C(=O)Nc2ccc(C(F)(F)F)cc2)cnn1-c1ccccc1	0.01	-2.8

(list continues)
#	compound	KCNQ2 enhance	KCNQ2 enhance baseline
51	COc1cccc(C2N(c3ccccn3)C(=O)C3CCCN32)c1OC (stereo unspecified)	1.6	3.8
52	CC1=CC2=NC(=O)CC(C)(C(=O)N(CC(=O)NC3CCCC3)Cc3ccc(Cl)cc3)N2C=C1 (stereo unspecified)	1.2	-1.5
53	Cc1ccc(OCCN(C)C(=O)C2CCC(=O)N(CCCN3CCCC3=O)C2)cc1 (stereo unspecified)	1.2	0.84
54	Cn1c(=NC(=O)CSCC(=O)N2CCCC2)sc2ccccc21	1.5	1.7
55	CC#CCN1c2ccccc2[C@]23C[C@@H](C(=O)OC)N(C(C)=O)C2=NC(C(=O)OC)=C(C(=O)OC)[C@H]13	1.2	-1.6
56	O=C(Nc1ccccc1)N(CCc1ccncc1)C1CCCCC1	0.15	1.2
57	COCCCNC(=O)C1CCN(C(=O)Nc2ccc(Cl)cc2)CC1	0.64	-1.6
58	O=C(OCc1ccc(Cl)c(Cl)c1)c1ccccn1	0.22	-1.9
59	Cc1ccc(N(CC(=O)NCc2cccs2)S(=O)(=O)c2cccs2)cc1	0.41	1.3
60	C=CCN(CC=C)CC(=O)Nc1ccc(S(N)(=O)=O)cc1	0.83	1.5
61	CCOC(=O)c1c(/N=C/C2C(=O)CC(C)(C)CC2=O)sc2c1CCCC2	0.23	1.2
62	CC1CCN(S(=O)(=O)c2ccc(C(=O)NCc3ccco3)cc2)CC1	1.7	-0.76
63	CCOc1ccccc1-c1cc(-c2ccccc2)nc2c1c(=O)n(C)c(=O)n2C	1.5	0.83
64	CCCCCNc1nc2ccccc2nc1NS(=O)(=O)c1cccs1	0.3	1.1
65	Cc1ccc(/C=N/n2cnnc2)s1	1.2	0.16
66	COc1ccc(-c2ccc(SCC(=O)NC3CCCCC3)nn2)cc1OC	0.49	1.1
67	CCOc1ccc(-n2nnnc2SCC(=O)NNC(=O)c2ccco2)cc1	0.19	-1.3
68	CC(=O)c1cccc(NC(=S)NC(=O)C(C)C)c1	0.09	-0.02
69	CC1=C(C(=O)N2CCCC(C(=O)c3cccc4ccccc34)C2)OCCO1 (stereo unspecified)	0.05	1.7
70	C=CCNC(=O)/C(C#N)=C\c1cc(Cl)c(O)c(OCC)c1	1.8	-0.06
71	O=C(c1ccco1)N1CCN(C(=O)c2ccccc2[N+](=O)[O-])CC1	2	-0.63
72	COc1ccc(Cl)cc1NC(=O)CN1C(=O)CSC1=O	0.18	1.5
73	CCCC(C)C(=O)Nc1cc([N+](=O)[O-])ccc1F (stereo unspecified)	0.52	0.36
74	Cc1ccc(S(=O)(=O)N(C)C)cc1NC(=S)NC12CC3CC(CC(C3)C1)C2	1	-0.57
75	C[C@H](NC(=O)Nc1cccc(C(F)(F)F)c1)C(=O)O	1.4	1.2

Next section
#	compound	KCNQ2 enhance	KCNQ2 enhance baseline
76	CC(=O)N(C)c1ccc(N=NC2C(=O)N(C(N)=S)N=C2C)cc1 (stereo unspecified)	1.3	-2.9
77	C/C(=N\NC(=O)c1ccc2c(c1)OCCO2)c1ccccc1	1.4	0.51
78	Cc1ccc2c(Cl)c(C)c(N3CCCCC3)nc2n1	0.67	-0.96
79	O=C(CCNC(=O)OCc1ccccc1)NC1CCCCC1	0.05	0
80	Cc1ccc(C(C)NC(=S)NC2CCCCC2)c(C)c1 (stereo unspecified)	7.3*	-0.08*
81	COc1cccc(-c2csc(N3CCN(C(=S)Nc4ccccc4)CC3)n2)c1	0.15	-0.38
82	CCC(=O)c1ccc(OCC(O)CN2CCc3ccccc3C2)cc1 (stereo unspecified)	0.62	-1.1
83	O=P(c1ccccc1)(c1ccccc1)C1CCCO1 (stereo unspecified)	0.01	0.88
84	CC/C(=N\NC(=O)C(N)=O)c1ccccc1O	1.1	-0.08
85	O=C(N=C1SC2CS(=O)(=O)CC2N1c1ccc(F)c(Cl)c1)C1CCCO1 (stereo unspecified)	0.08	0.02
86	CCc1ccccc1N(C(=O)c1snc(C(N)=O)c1N)C(C(=O)NCC1CCCO1)c1ccc(N(C)C)cc1 (stereo unspecified)	1.1	0.11
87	CCCC(=O)NCCCc1nc2ccccc2n1C(C)C	0.02	1.1
88	Cc1ccc(C)c(NC(=O)CSc2nnc(CCCCCNC(=O)OC(C)(C)C)o2)c1	1.2	-1.2
89	COc1ccc(NC(=O)Cn2nnc(C(=O)Nc3ccc(F)c(Cl)c3)c2N)cc1OC	1.9	0.36
90	Cc1ccc(CN2C(=O)CCC2C(=O)N2CCN(c3ccc(F)cc3)CC2)cc1 (stereo unspecified)	0.75	2.4
91	CCCNC(=S)N1CC2(C)CN(C(=O)C(=O)OC)CC(C)(C1)C2=O	1.2	-0.73
92	O=C(COC(=O)c1ccc(Cl)nc1)Nc1ccccc1OC(F)F	0.53	1.5
93	CCOC(=O)N1CCN(C(=S)Nc2ccc(C)c(C)c2)CC1	1.4	-0.16
94	Cc1csc(NC(=O)Cc2ccc(Cl)cc2)n1	1.3	-0.16
95	CC1CCCN(CCCNC(=O)c2cn(C)c3ccc(S(=O)(=O)N(C)C4CCCCC4)cc3c2=O)C1 (stereo unspecified)	1.5	0.66
96	O=c1c2c(nc3nc(Cc4ccccc4)[nH]n13)CCC2	0.61	-0.64
97	O=C(c1cc2cc(Cl)ccc2[nH]1)N1CCN(c2ccccc2F)CC1	0.01	0.63
98	O=C(CN1CCN(C(=O)c2ccccc2)CC1)Nc1ccc(Br)cn1	0.66	1.1
99	CC1CC(=O)Nc2ccccc2N1C(=O)Nc1ccc(F)cc1 (stereo unspecified)	0.53	0.55
100	CN(C1=NS(=O)(=O)c2ccccc21)c1ccc(OC(=O)c2ccccc2)cc1	0.81	-0.96

(more compounds)
#	compound	KCNQ2 enhance	KCNQ2 enhance baseline
101	CCC(CO)n1c(SCc2cc([N+](=O)[O-])cc3c2OCOC3)nc2ccccc2c1=O (stereo unspecified)	0.08	-0.71
102	Cc1cc(C(F)(F)F)nc(SCC(=O)NC2CCCCC2)n1	1.1	0.91
103	Cc1cc(-c2nnc(SCc3ccccn3)o2)no1	1.1	0.25
104	COc1cccc(CC(NC(C)=O)C(=O)NC2CCN(C(=O)c3ccc(Cl)cc3)CC2)c1OC (stereo unspecified)	0.18	0
105	Cc1ccc(Nc2nc(CSc3nnc(-c4cccnc4)n3-c3ccccc3F)cs2)cc1	0.45	-2.4
106	COc1ccc(N2CCN(CCCNC(=O)C3CCC(CNc4nc(=S)[nH]c5ccccc45)CC3)CC2)cc1 (stereo unspecified)	1.1	0.26
107	CS(=O)(=O)N1CCN(Cc2ccccc2C(F)(F)F)CC1	0.37	2.4
108	CC(CCc1ccc(O)cc1)NC1C2CC3CC(C2)CC1C3 (stereo unspecified)	0.58	2.4
109	CN1CCN(CCNC(=O)c2ccc3nc(-c4ccc(F)cc4)c(-c4ccc(F)cc4)nc3c2)CC1	3.3	1.3
110	COc1ccc(C(=O)NC(=S)NNC(=O)c2ccco2)cc1	0.16	-0.42
111	O=C(Nc1nccs1)C1CCN(S(=O)(=O)c2ccccc2)CC1	0.57	-0.23
112	O=C(CN1CCN(c2ccccn2)CC1)Nc1ccc(F)c(F)c1	1.4	-0.04
113	CCc1nccn1S(=O)(=O)c1ccc(OC)c(OC)c1	1.3	-0.02
114	CCCNC(=O)[C@H]1N2C(=O)c3c(ccc(OC)c3OC)C2SC1(C)C (stereo partly specified)	1.1	-0.01
115	Cc1nc2c(-c3ccccc3)c(C)[nH]n2c(=O)c1Cc1ccccc1	0.02	-1.4

From PubChem

An excerpt; the hit share may differ from the screen's.
